# Assay outcomes (PubChem)
# Sa helicase inh – blocks Staphylococcus aureus DNA helicase; inhibition, %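 (tested at about 80 µM)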; purified S. aureus helicase, fluorescence unwinding assay; about half of the hits fall short of the stated cut; 120,000 compounds, 0.05% hits;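 active means both duplicates at 50% or more, or one of them with a favoured structure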;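 further: 0% = mean of negative control wells and 100% = mean of positive control wells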
# MgrA-DNA mod – S. aureus MgrA-DNA binding modulation | fluorescence polarization | inhibition, %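 (about 10 µg/mL by stock and volumes)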 | 84,000 compounds, 0.13% hits | AID 602314;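 active means above 50% in either of two replicates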;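 further: 0% = protein plus DNA without compound and 100% = DNA alone without protein; higher means less MgrA bound to DNA so lower polarization; one replicate is shown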
# * = called active by the depositor; · = not tested or not shown; & = joins results of further samples. This is a subset; count on the stated rates, not on these rows.
# Values run as follows: Sa helicase inh | MgrA-DNA mod
Cc1ccc(CN2C(=O)CCNc3ccc(C(F)(F)F)cc32)cc1
  · | 1.3
CC(=O)NCCc1ccc(OC(C)=O)cc1
  · | -0.3
Cc1cc2n(n1)C(c1ccsc1)Nc1c(C)cccc1-2 (stereo not drawn)
  8 | -0.3
COc1cccc(CNC(=O)c2cnc(OC)cc2C(F)(F)F)c1
  · | -1.0
O=C(Cn1nc(-c2ccccc2)c2ccccc2c1=O)NCCN1CCOCC1
  8 | ·
C=CCN1C(=O)/C(=N/N=C/c2ccc(OC)c(O)c2)c2ccccc21
  -3 | ·
CCC12CCCN3CCC4(C(=C(C(=O)OC)C1)Nc1ccccc14)C32 (stereo not drawn)
  -42 | ·
NC(=O)NC1NC(=O)NC1=O (stereo not drawn)
  · | 6.8&-0.1
CC1=CC(=O)N(c2c(C)n(C)n(-c3ccccc3)c2=O)C1=O
  22 | -0.5
Cc1cc(C)n(CC(O)c2ccccc2)n1 (stereo not drawn)
  -3 | ·
COc1cccc(/C(O)=C/c2nc3ccc(C(=O)Nc4cccc(C)c4)cc3[nH]c2=O)c1
  -216 | 18
CCN(CC)c1ccc(N=C2C(=O)Nc3ccccc32)cc1
  30 | ·
OC(COc1ccccc1Cl)CN1CCCC1 (stereo not drawn)
  -11 | ·
Cn1cnc(-c2ccccc2NS(=O)(=O)c2ccc(Cl)cc2)n1
  · | -1.4
CCOC(=O)c1cc2sccc2[nH]1
  -8 | ·

# The list goes on, overlapping the part above by 7 compounds.
# Values run as follows: Sa helicase inh | MgrA-DNA mod
CC1=CC(=O)N(c2c(C)n(C)n(-c3ccccc3)c2=O)C1=O
  22 | -0.5
Cc1cc(C)n(CC(O)c2ccccc2)n1 (stereo not drawn)
  -3 | ·
COc1cccc(/C(O)=C/c2nc3ccc(C(=O)Nc4cccc(C)c4)cc3[nH]c2=O)c1
  -216 | 18
CCN(CC)c1ccc(N=C2C(=O)Nc3ccccc32)cc1
  30 | ·
OC(COc1ccccc1Cl)CN1CCCC1 (stereo not drawn)
  -11 | ·
Cn1cnc(-c2ccccc2NS(=O)(=O)c2ccc(Cl)cc2)n1
  · | -1.4
CCOC(=O)c1cc2sccc2[nH]1
  -8 | ·
O=C(ON=C1C2CC3CC(C2)CC1C3)c1ccc(F)cc1
  · | -0.7
COc1ccc(Oc2cc(C)c3ccccc3n2)cc1
  · | -0.8
Cc1ccc(CSc2nc3ccccc3c3nc(CCc4c(C)n[nH]c4C)nn23)cc1
  13 | 2.5
O=C1c2ccccc2C(=O)N1CCCc1nc2ccccc2c(=O)n1Cc1ccco1
  -8 | ·
C=CCn1cnc2c(cnn2-c2ccc(F)cc2)c1=O
  14 | 1.1
N#CCC(O)CNc1ncc(C(F)(F)F)cc1Cl (stereo not drawn)
  · | -1.2
COc1ccc(-n2cc(C(=O)NCCC3=CCCCC3)nn2)cc1
  -26 | ·
O=C1C(=C2NCCN2)CC/C1=C\c1ccco1
  -7 | ·
CCC(=O)NNc1nc2c(C)c(C)ccc2s1
  -1 | ·
CCOC(=O)c1c(C)csc1NC(=O)CSCC(=O)O
  · | 0.1
O=C(Nc1ccc2c(c1)C(=O)OC2)c1cc2ccccc2s1
  · | 0.0
O=C(NC(=S)Nc1ccc(-n2nncc2-c2ccco2)cc1)C12CC3CC(CC(C3)C1)C2
  7 | ·
COc1ccc(Cl)cc1NC(=O)CN1C(=O)CSc2ncccc21
  -18 | 0.4
CC/C(C)=C(\C#N)c1nc2ccccc2[nH]1
  -10 | ·
Cc1nnc2n1CCCCC2
  7 | ·
COC1=CC(=O)c2ccccc2C1=O
  29 | ·
CCOC(=O)C1CCN(C(=O)c2coc3ccccc3c2=O)CC1
  -5 | ·
Cc1ccc(C(=O)NC(=S)Nc2ccc(NC(=O)c3ccco3)cc2)cc1C
  -28 | ·
Cc1ccc(-c2nc3sccn3c2Nc2ccccc2)cc1
  -14 | ·
O=c1c2ccccc2nc(SCc2ccccc2)n1OCc1ccccc1
  10 | -0.7
CCOC(=O)c1[nH]c(C)c(C(=O)NC2CCCCC2)c1C
  -21 | ·
CCOc1nc(NCCO)nc(NCCC2=CCCCC2)n1
  -5 | 0.5
CCCNC(=O)NCC1CCN(Cc2ccccc2)CC1
  -5 | -0.5
CCc1cc(C(=O)c2ccc(OC)cc2)c(NC(=O)CC(C)(C)CC(=O)O)s1
  · | 2.0
N#Cc1c(N)n(-c2cccc(C(F)(F)F)c2)c2nc3ccccc3nc12
  -6 | -0.2
CCCC(=O)C1CCN(C(=O)c2ccc(C(C)(C)C)cc2)CC1
  19 | ·
O=C(Nc1ccc(OC(F)(F)F)cc1)c1ccccn1
  16 | ·
O=C(Cn1nnc(-c2ccc(C(F)(F)F)cc2)n1)Sc1ccc(F)cc1F
  · | 4.0
Clc1ccc(-n2cc(-c3ccccc3)c3c(NCCCN4CCOCC4)ncnc32)cc1
  8 | 0.0
COc1ccc(Nc2cc(N3CCCC3)ncn2)cc1
  -30 | ·
CCCCN1C(=O)c2[nH]nc(-c3ccccc3O)c2C1c1cccc(O)c1 (stereo not drawn)
  7 | 0.1
CCOc1ccc(N=C2SC(C(=O)Nc3ccc(C(=O)O)cc3)CC(=O)N2Cc2ccc3c(c2)OCO3)cc1 (stereo not drawn)
  · | 3.6
Brc1ccc(NC2=NCCC2)cc1
  10 | ·
Cn1c(COc2ccccc2O)[n+](C)c2ccccc21
  -5 | 0.2
CCn1c(C(=O)O)c(CNCc2ccc(C)o2)c2ccc(OC)cc21
  -13 | ·
Cc1ccc(N=c2scc(-c3ccco3)n2/N=C/c2ccncc2)c(C)c1
  -8 | ·
NCc1nc(-c2ccccc2)no1
  6 | -7.5
O=C(NC1CC2CCCC(C1)N2CC(=O)N1CCCc2ccccc21)c1ccccc1 (stereo not drawn)
  16 | 0.8
COc1ccc(OC)c(NC(=O)c2csc(Cl)c2OC)c1
  · | -3.0
CC1(C)OC(c2ccccc2)CC1=O (stereo not drawn)
  3 | 3.5
COc1cccc(-c2nnc(-c3ccccc3NC(=O)c3ccc(F)cc3)o2)c1
  · | -1.5
CC(C)(O)C#Cc1ccc(/C=N/Nc2ccccc2)cc1
  · | 7.5
O=C(NCc1ccccc1CN1CCCC1)c1cc2cc(Cl)ccc2o1
  7 | ·
O=C(Nc1nc(-c2ccccc2)cs1)c1ccccc1
  -19 | -0.6
CCOC(=O)C(CC)n1cnc2c(oc3ccccc32)c1=O (stereo not drawn)
  3 | 0.2
N#Cc1ccsc1NC(=O)COC(=O)C1CC(=O)N(Cc2ccco2)C1 (stereo not drawn)
  -16 | ·
Cc1cccc(C(=O)Nc2nnc(CCOCCOCCc3nnc(NC(=O)c4cccc(C)c4)s3)s2)c1
  · | 0.2
COc1ccc(OC)c(C(=O)COC(=O)c2ccc3ccccc3n2)c1
  9 | ·
NC(=NC(=O)c1ccccc1)c1ccc(C(F)(F)F)cn1
  · | -1.1
O=C(CC12CC3CC(CC(C3)C1)C2)Nc1ccc(N2CCN(C(=O)c3ccco3)CC2)cc1
  12 | 1.0
OCC1(CO)COC2(CCN(Cc3ccccc3)CC2)N1
  9 | ·
CCOC(=O)C/C(C)=N/n1c(C)cc(C)c(C#N)c1=O
  -27 | ·
COc1ccc(Br)cc1C=Nc1ccc2[nH]c(=O)[nH]c2c1
  -12 | ·
O=C(CS(=O)(=O)c1ccc2ccccc2c1)N1CCCCCC1
  3 | -2.1
CCN(CC)S(=O)(=O)c1ccc2oc(C(=O)Nc3ccc(C)c(C)c3)c(C)c2c1
  -9 | ·
COC(Cn1c(SCc2ccc(Cl)cc2)nnc1-c1ccccc1)OC
  · | -2.1
c1cc(-c2cc(-c3nc4c5c(ncn4n3)CCC5)[nH]n2)ccn1
  17 | ·
Cc1csc2sc(C=N/C(C#N)=C(\N)C#N)c(C)c12
  · | -0.1
CCOc1cc(C=C2C(=O)OC3(CCCC3)OC2=O)cc(I)c1O
  -110 | ·
O=C(CCNS(=O)(=O)c1ccccc1)Nc1ccccc1
  4 | -2.8

# (cont.)
# Values run as follows: Sa helicase inh | MgrA-DNA mod
CC(=O)N(c1ccc(C(C)C)cc1)C1C=CS(=O)(=O)C1 (stereo not drawn)
  -7 | -0.1
CCOC(=O)c1sc(-c2ccccc2)cc1N
  7 | ·
CC(C)Cc1ccc(C(C)C(=O)Nc2ccc(Cl)cc2)cc1 (stereo not drawn)
  · | -0.1
C=C(NCc1ccco1)c1ccc(Cl)cc1
  · | 0.7
CSC(SC)=C(C#N)c1ccc(Cl)cc1Cl
  · | 0.5
CN(C)c1c(/C=C(/C#N)S(C)(=O)=O)cc(/C=C(/C#N)S(C)(=O)=O)c(N(C)C)c1C#N
  · | 1.6
COc1ccc(CN(Cc2nc3ccccc3c(=O)[nH]2)C(=O)Nc2ccccc2)cc1
  12 | -3.9
O=C(O)/C=C/C(=O)N1CCN(C(=O)/C=C/C(=O)O)CC1
  5 | -2.6
COc1ccc(OC)c(N(CC(=O)N2CCN(c3ccccc3F)CC2)S(C)(=O)=O)c1
  7 | -2.2
O=c1onc(-c2ccc(Cl)cc2Cl)n1-c1cccnc1
  · | -3.4
O=C(CCCN1CCNCC1)c1ccc(F)cc1
  -8 | -6.7
Cc1onc(-c2ccc(Cl)cc2)c1-c1ccnc(SCc2ccccc2)n1
  -15 | ·
C=CCNC(=O)CSc1nnc(Cc2cccc3ccccc23)n1N
  -5 | ·
O=C1NCCCC2c3cc(O)ccc3OC12N1CCCCC1 (stereo not drawn)
  -34 | ·
Cc1csc(NC(=O)c2sc3nc4c(c(C(F)(F)F)c3c2N)CCC4)n1
  -127 | 3.4
CCC(=O)N1N=C(c2ccc(C3=NN(C(=O)CC)C(c4cccc(OC)c4OC)C3)cc2)CC1c1cccc(OC)c1OC (stereo not drawn)
  · | -0.4
COc1cc(C2C(C(=O)OCC3CCCO3)=C(C)NC3=C2C(=O)CC(C)(C)C3)cc(Br)c1O (stereo not drawn)
  · | -2.7
O=C(C1CCCCC1)N1CC(=O)N2CCc3ccccc3C2C1 (stereo not drawn)
  · | 2.5&-1.0
O=C(CSc1nccc(-c2cccs2)n1)c1ccccc1
  · | -1.7
Cn1nc(-c2ccc(Cl)cc2)[nH]c1=O
  -17 | ·
O=C(CNC(=O)C1CCCCC1)Nc1nc(CC23CC4CC(CC(C4)C2)C3)cs1
  15 | 0.6
CCc1ccccc1-n1ncc2c1ncn1nc(-c3ccncc3)nc21
  -21 | ·
CCC(C)(C)C1CCc2nc3ccccc3c(C(=O)OCC(N)=O)c2C1 (stereo not drawn)
  -8 | 1.9
O=C(O)CSc1nc2ccccc2s1
  · | -0.8
COc1ccccc1NC(=O)CN(Cc1ccco1)C(=O)c1cc(C2CC2)nn1-c1ccccc1
  3 | ·
Cc1ccc(S(=O)(=O)C(C#N)=C2SCCS2)cc1
  · | 0.1
S=C(N/N=C/C=C/c1ccccc1)NC1CC2C=CC1C2 (stereo not drawn)
  · | -0.2
CCSC(=O)NC12CC3CC(CC(C3)C1)C2
  -7 | 2.4
CC(C)N1CC(C(=O)N2CCN(Cc3ccccc3)CC2)CC1=O (stereo not drawn)
  -4 | -0.2
CCOc1ccc(NC(=O)c2ccccc2NC(=O)c2cccnc2)cc1
  -8 | ·
O=C1CSC(=S)N1CCc1ccccc1
  · | -1.6
Cc1ccc(Oc2c(C)nc(C)[nH]c2=O)cc1
  · | -3.5
Cc1ccc(C(=O)N2CCCC2)cc1NC(=O)c1ccco1
  -2 | -4.5
CCOC(=O)N1N=C(C)CC1(O)c1cccnc1 (stereo not drawn)
  7 | 0.8
O=C(NCC1NCCc2ccccc21)C1CCCCC1 (stereo not drawn)
  8 | ·
O=C(NCc1ccco1)C1COc2ccccc2O1 (stereo not drawn)
  · | -1.7
COC(=O)c1sc(=S)n(-c2cccc(Cl)c2)c1N
  15 | ·
CC1CCCN(C(=O)COC(=O)/C=C/c2ccc(C(F)(F)F)cc2)C1 (stereo not drawn)
  -3 | ·
COc1cc(C(=O)Oc2cccc(Nc3ncnc4ccccc34)c2)cc(OC)c1OC
  5 | ·
CCOc1cc(/C=C/c2ccccc2OC)cc(=O)c2c(C)oc(C)c12
  -1 | -0.1
Cc1ccccc1NC1c2ccccc2C(=O)N1Cc1ccco1 (stereo not drawn)
  -35 | ·
Cn1c(=Nc2cccc(O)c2)sc2ccccc21
  19 | -0.4
CCOC(=O)C1CCCN(c2c(N)n(CC)c(=O)[nH]c2=O)C1 (stereo not drawn)
  -10 | ·
O=C1C2C3C=CC(C3)C2C(=O)N1NC(=O)C12CC3CC(CC(C3)C1)C2 (stereo not drawn)
  9 | ·
OC1(C(F)(F)F)CC(C23CC4CC(CC(C4)C2)C3)=NN1 (stereo not drawn)
  · | 0.4

# Given with bars between the fields: entries from further up.
compound | Sa helicase inh | MgrA-DNA mod
CCOC(=O)c1sc(-c2ccccc2)cc1N | 7 | ·
CC(C)Cc1ccc(C(C)C(=O)Nc2ccc(Cl)cc2)cc1 (stereo not drawn) | · | -0.1

# New compounds follow:
# Values run as follows: Sa helicase inh | MgrA-DNA mod
CS(=O)(=O)c1ccc(NC(=O)C2CCCC2)cc1
  -4 | ·
CCOc1ccc(CCNC(=O)c2cccc3c2SCCC3=O)cc1OCC
  10 | -0.7
O=c1c(=O)n(Cc2ccc(Cl)cc2)ccn1Cc1ccccc1
  12 | 0.8
Cc1cc(C)cc(C(=O)Nc2ccccc2N2CCOCC2)c1
  6 | -1.1
N=c1scc(-c2ccc(Cl)cc2)n1-c1ccccc1F
  · | -0.5
N#Cc1ccc(COC(=O)C2CCN(c3nc4ccccc4o3)CC2)cc1
  -10 | ·
Cc1nn(-c2ccccc2)c2sc(C(=O)OCSc3ncccn3)cc12
  13 | ·
CC1CCCC/C1=N\NS(C)(=O)=O (stereo not drawn)
  0 | 0.3
CCN(CC)c1ccc(NC(=O)CCNS(=O)(=O)c2ccc3c(c2)CCC(=O)N3)c(C)c1
  -26 | ·
CCn1c2ccccc2c2cc(C=Nc3ccc(C)cc3O)ccc21
  3 | -2.3
Cc1ccc(S(=O)(=O)Nc2ccc3nc(-c4ccccn4)[nH]c3c2)cc1
  17 | 2.2
